TSG101-PTAP inh – qHTS Assay for Iinhibitors of HIV-1 Budding by Blocking the Interaction of PTAP/TSG101; 340,000 tested, under 10 active; Fluorescence polarization, FITC-PTAP peptide / Tsg101 binding; Tumor susceptibility gene 101 protein (Homo sapiens), Q99816; Potency, µM (highest dose often 115 µM), inactives show at the top dose activity change, negative = inhibition, hits mostly inhibitors; active means well fitted inhibition curve with a large enough effect in the main read-out, with a control signal flat, not every such curve was filed as active; inconclusive means small, poorly fitted or top-dose-only effect, or effect the other way, or a change in a side signal; inactive means no such curve, though single readings can be large or run the other way; further: potency means the concentration at half of the fitted maximal effect; % of control where 0% means no effect
Target sequence (Q99816 whole entry, looked up): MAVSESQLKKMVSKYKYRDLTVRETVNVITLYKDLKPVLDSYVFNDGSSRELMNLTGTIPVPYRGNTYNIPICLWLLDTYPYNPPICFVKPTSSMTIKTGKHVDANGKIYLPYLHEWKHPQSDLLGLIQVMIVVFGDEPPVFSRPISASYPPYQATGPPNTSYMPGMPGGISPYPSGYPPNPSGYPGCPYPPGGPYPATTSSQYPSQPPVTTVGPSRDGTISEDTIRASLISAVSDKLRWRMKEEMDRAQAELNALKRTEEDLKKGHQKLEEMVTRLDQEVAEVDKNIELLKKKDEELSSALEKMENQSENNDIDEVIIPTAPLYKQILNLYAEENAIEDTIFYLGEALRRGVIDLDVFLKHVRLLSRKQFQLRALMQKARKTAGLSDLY
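Compounds were pin-transferred onto Tsg101 binding domain (10 uM final) in HEPES pH 7.5 buffer, then FITC-PTAP peptide was added at 50 nM final. After 20 min at RT, polarization reported peptide displacement across a qHTS concentration series.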
TCR act – Activators of T cell receptors: qHTS campaign; primary human leukocytes, anti-CD3, IL-2 HTRF, 48 h; Potency, µM (doses to about 9.22 µM), for the others: at the highest dose activation of IL-2 secretion, most hits filed as activators; 330,000 tested, under 10 active; further: % of control where 0% means no effect
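IL-2 release read by HTRF sandwich (Eu cryptate donor, d2 acceptor, 665 nm emission) after 48 hr exposure of primary human leukocytes to compound together with anti-CD3 beads in the absence of co-stimulatory signals.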
MBNL1-CUG inh – qHTS Assay for Inhibitors of MBNL1-poly(CUG) RNA binding; Potency, µM (highest dose often 57.5 µM), inactives show at the top dose activity change, negative = inhibition, hits mostly inhibitors; 280,000 compounds, 0.036% hits; Muscleblind-like protein 1 (Homo sapiens), Q9NR56; AID 2675, 2010; TR-FRET MBNL1-His/biotin-(CUG)12 binding, 665/545 ratio; active means well fitted inhibition curve with a large enough effect in the signal ratio, with a control signal flat, not every such curve was filed as active; inconclusive means small, poorly fitted or top-dose-only effect, or effect the other way, or a change in a side signal; inactive means no such curve, though single readings can be large or run the other way; the % refers to the signal ratio; further: potency means the concentration at half of the fitted maximal effect; on the % scale 0 is the no-effect control and ±100 the full control effect
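TR-FRET between His-tagged MBNL1 and biotin-(CUG)12 RNA, detected with Tb anti-His antibody (0.055 ng/ul) and streptavidin-XL665 (5 nM), 60 min at room temperature. Compounds titrated 92 nM to 58 uM; 665/545 nm ratio normalized to buffer and complex controls.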
Integrin act MD – qHTS for Activators of Integrin-Mediated Alleviation for Muscular Dystrophy. alpha7betagal myoblasts, beta-gal FDG fluorescence, 48 h. Potency, µM (doses to about 38.3 µM), for the others: at the highest dose activation, actives largely listed as activators. 350,000 compounds, 0.064% hits. AID 624291, 2012;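 further: potency means the concentration at half of the fitted maximal effect; 100% = response of the positive control SU9516; nearly all actives have a fitted effect of over 60% in size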
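Alpha7betagal+/- myoblasts (passage 13) were plated 16-24 hr, then exposed to compounds (1:260 dilution of DMSO stock) for 48 hours at 37C. After MPER lysis, β-galactosidase reporter activity was read as FDG fluorescence (ex 480/em 540) after 30 minutes.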
A-T KAP1 phos – qHTS Assay for Identifying a Potential Treatment of Ataxia-Telangiectasia; […] A-T fibroblasts, KAP-1 phosphorylation AlphaLISA; neocarzinostatin DNA damage 30 min before lysis; Potency, µM (series often up to 57.5 µM), for the others: at the top dose activation, usual class: activators; 320,000 compounds, 0.19% hits; further: potency means the concentration at half of the fitted maximal effect; % of control where 0% means no effect; nearly all actives have a fitted effect of over 45% in size
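hTERT-immortalized A-T patient fibroblasts ([…]), 500 cells/well in OPTI-MEM, 1% FBS, got compounds for 60 min, then NCS for 30 min at 37C. Lysates were then assayed for phospho-KAP-1 by AlphaLISA (anti-pKAP1 donor, anti-KAP1 acceptor beads), 6 hr at 25C.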
Starred values were filed as active, the others as inactive; ? = inconclusive; · = no result given; & = joins results of further samples; [ ] = remark or other dose. Unless noted, the call rests on the fitted dose curve; in most records, active means well fitted curve in the direction sought with a large enough effect; inconclusive means small, poorly fitted or top-dose-only effect, or another doubt; inactive means no such curve, though single readings can be large; an effect the other way counts as inactive or inconclusive.

1: O=c1c(NCCc2ccc(Cl)cc2)c(-c2ccccc2)c1=O
2: O=C(O)c1ccc2nc3c(nc2c1)-c1ccccc1C3=O
3: COc1c(N2C[C@@H]3CCCN[C@@H]3C2)c(F)cc2c(=O)c(C(=O)O)cn(C3CC3)c12
4: Cc1cccc(N2CCN(C(=O)c3cc4c(=O)n(C)c5ccccc5c4n3C)CC2C)c1 (stereo not given)
5: CC(C)NC(=O)CNc1ccc(C(F)(F)F)cc1[N+](=O)[O-]
6: O=C(/C=C/c1ccc2ccccc2c1)c1ccoc1
7: O=[N+]([O-])c1cc(-c2n[nH]c(-c3ccccc3)n2)cc([N+](=O)[O-])c1
8: COc1cc(C(=O)NCCc2c[nH]c3ccccc23)ccc1OCc1c(C)noc1C

| Screen / compound no. | 1 | 2 | 3 | 4 | 5 | 6 | 7 | 8 |
| --- | --- | --- | --- | --- | --- | --- | --- | --- |
| TSG101-PTAP inh | -2% | -1% | -4% | -3% | 2% | -3% | -4% | -6% |
| TCR act | -47% | 3% | -5% | 12% | 3% | -1% | 0% | -4% |
| MBNL1-CUG inh | -1% | ? | · | -1% | ? | 7% | ? | -5% |
| Integrin act MD | 0% | -23% | · | -20% | -20% | 22% | -2% | ? |
| A-T KAP1 phos | 9% | -1% | · | -7% | -4% | -7% | 0% | 2% |

Shown bar-delimited: part of the list above
nr | smiles | TSG101-PTAP inh | TCR act | MBNL1-CUG inh | Integrin act MD | A-T KAP1 phos
2 | O=C(O)c1ccc2nc3c(nc2c1)-c1ccccc1C3=O | -1% | 3% | ? | -23% | -1%
3 | COc1c(N2C[C@@H]3CCCN[C@@H]3C2)c(F)cc2c(=O)c(C(=O)O)cn(C3CC3)c12 | -4% | -5% | · | · | ·
1 | O=c1c(NCCc2ccc(Cl)cc2)c(-c2ccccc2)c1=O | -2% | -47% | -1% | 0% | 9%
5 | CC(C)NC(=O)CNc1ccc(C(F)(F)F)cc1[N+](=O)[O-] | 2% | 3% | ? | -20% | -4%

Rewritten with values under each structure: entries from further up.
Value order – TSG101-PTAP inh, TCR act, MBNL1-CUG inh, Integrin act MD, A-T KAP1 phos
(6) O=C(/C=C/c1ccc2ccccc2c1)c1ccoc1
→ -3%, -1%, 7%, 22%, -7%
(7) O=[N+]([O-])c1cc(-c2n[nH]c(-c3ccccc3)n2)cc([N+](=O)[O-])c1
→ -4%, 0%, ?, -2%, 0%
(8) COc1cc(C(=O)NCCc2c[nH]c3ccccc23)ccc1OCc1c(C)noc1C
→ -6%, -4%, -5%, ?, 2%

Some values from the list.
compound 2 in TCR act shows 3%
compound 8 in MBNL1-CUG inh shows -5%
compound 6 in TCR act shows -1%
compound 5 in TSG101-PTAP inh shows 2%

The listing continues:
9: C=CCn1c(C)cc(C(=O)COC(=O)c2ccc(N)c([N+](=O)[O-])c2)c1C
10: O=C(O)/C=C\C(=O)O
11: CN1[C@@H]2CCC[C@H]1CC(NC(=O)c1nn(C)c3ccccc13)C2 (stereo not given in full)
12: O=c1c(NCCc2ccccc2)c(-c2ccccc2)c1=O
13: Cc1nc(-c2ccccc2)c(-c2ccccc2)[nH]1
14: Cc1cnc(NC(=O)C2C(=O)c3ccccc3S(=O)(=O)N2C)s1 (stereo not given)
15: Cc1nc2ccc(S(=O)(=O)NCC(=O)NCCN3CCCCCC3)cc2s1
16: Cc1cnc(NC(=O)C2=C(O)c3ccccc3S(=O)(=O)N2C)s1

| Screen / compound no. | 9 | 10 | 11 | 12 | 13 | 14 | 15 | 16 |
| --- | --- | --- | --- | --- | --- | --- | --- | --- |
| TSG101-PTAP inh | -5% | -4% | 0% | -3% | -8% | -1% | -4% | -8%&-2%&-1%&-7% |
| TCR act | -6%[46.1 µM] | 6% | -6% | -1% | -2%[46.1 µM] | -3% | -4% | -2%&-2%&-10%&14% |
| MBNL1-CUG inh | 25% | · | · | 2% | 16% | · | -1% | 17%&-7% |
| Integrin act MD | -47%[inhibitor] | · | · | -13% | 5% | · | 10% | · |
| A-T KAP1 phos | -3% | -6% | 2% | -13% | -3% | -5% | 0% | -4%&4%&-9% |

17: COC(=O)[C@@H]1[C@H]2C[C@H]3c4[nH]c5ccccc5c4CCN3C[C@@H]2CC[C@@H]1O
18: CN1C2CCC1CC(OC(=O)C(CO)c1ccccc1)C2 (stereo not given)
19: N#Cc1c(-c2cccc(Br)c2)cc(-c2ccco2)[nH]c1=O
20: CC(=O)Nc1nnc(CCN2CCCCC2)s1

| Screen / compound no. | 17 | 18 | 19 | 20 |
| --- | --- | --- | --- | --- |
| TSG101-PTAP inh | 3%&-5% | 2% | -2% | -1% |
| TCR act | -2%&-9% | 1% | -4% | -2% |
| MBNL1-CUG inh | 0% | · | 21% | -1% |
| Integrin act MD | · | · | -16% | 22%[7.66 µM] |
| A-T KAP1 phos | 2% | · | 4% | 9% |

Complete entries, looked up by structure. Order of values: TSG101-PTAP inh | TCR act | MBNL1-CUG inh | Integrin act MD | A-T KAP1 phos
`N#Cc1c(-c2cccc(Br)c2)cc(-c2ccco2)[nH]c1=O` as listed: -2% | -4% | 21% | -16% | 4%
`COC(=O)[C@@H]1[C@H]2C[C@H]3c4[nH]c5ccccc5c4CCN3C[C@@H]2CC[C@@H]1O` as listed: 3%&-5% | -2%&-9% | 0% | · | 2%

Bioassay records (PubChem BioAssay)

Some of the compounds tested (hit frequency here may not be typical).
